# EPAC1 agonist = Validation qHTS for agonist of cAMP-regulated guanine nucleotide exchange factor 3 (EPAC1) | Rap guanine nucleotide exchange factor 3 (Homo sapiens), O95398 | EPAC1 Rap1b BODIPY-GDP exchange, fluorescence | AID 1645883, 2021 | hit rate 1% among 16,000 | Potency, µM, for the others: max response, positive = active, most hits filed as activators; active means well fitted activation curve with a large enough effect; inconclusive means small, poorly fitted or top-dose-only effect; inactive means no such curve, though single readings can be large or run the other way;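 further: nearly all actives have a fitted effect of over 70% in size; series mostly up to about 76 or 150 µM; scaled to a cAMP control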
# Target sequence (O95398 whole entry, looked up): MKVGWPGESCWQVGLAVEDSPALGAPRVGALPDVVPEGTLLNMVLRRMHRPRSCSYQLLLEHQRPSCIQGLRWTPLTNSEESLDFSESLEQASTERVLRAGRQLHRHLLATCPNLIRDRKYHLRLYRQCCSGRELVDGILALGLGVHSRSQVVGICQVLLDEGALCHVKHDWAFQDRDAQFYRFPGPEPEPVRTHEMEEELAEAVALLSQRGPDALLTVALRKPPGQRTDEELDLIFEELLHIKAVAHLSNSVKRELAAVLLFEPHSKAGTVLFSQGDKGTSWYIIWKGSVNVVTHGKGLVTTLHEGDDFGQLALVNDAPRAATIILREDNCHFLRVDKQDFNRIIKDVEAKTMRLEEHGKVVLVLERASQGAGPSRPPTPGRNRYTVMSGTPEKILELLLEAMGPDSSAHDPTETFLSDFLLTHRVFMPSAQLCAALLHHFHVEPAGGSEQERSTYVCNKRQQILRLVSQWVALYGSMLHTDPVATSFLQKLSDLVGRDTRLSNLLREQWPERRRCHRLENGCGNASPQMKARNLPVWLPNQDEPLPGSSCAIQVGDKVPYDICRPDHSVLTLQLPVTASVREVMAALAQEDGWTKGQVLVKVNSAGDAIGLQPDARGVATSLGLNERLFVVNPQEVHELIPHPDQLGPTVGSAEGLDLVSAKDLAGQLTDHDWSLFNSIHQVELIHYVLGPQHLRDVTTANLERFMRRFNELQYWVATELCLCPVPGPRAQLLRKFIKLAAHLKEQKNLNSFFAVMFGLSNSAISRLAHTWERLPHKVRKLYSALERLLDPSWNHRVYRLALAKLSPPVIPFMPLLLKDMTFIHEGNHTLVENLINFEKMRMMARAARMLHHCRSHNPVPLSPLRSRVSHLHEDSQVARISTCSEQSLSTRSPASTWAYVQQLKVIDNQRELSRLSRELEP
# Numbers without * were called inactive; ? = inconclusive; & = joins results of further samples; [ ] = remark or other dose. On the % scale 0 is the no-effect control and ±100 the full control effect; potency means the concentration at half of the fitted maximal effect. Not all compounds are listed; count on the stated rates, not on these rows.
# Preview:
SMILES,EPAC1 agonist
CC(n1cc(C[C@H](N)C(=O)O)c2ccccc21)n1cc(C[C@H](N)C(=O)O)c2ccccc21,-13%
C=CCN1CC[C@]23CCCCC2[C@H]1Cc1ccc(O)cc13 (stereo partly specified),-7%

# The list itself, from the first entry:
SMILES,EPAC1 agonist
CC(n1cc(C[C@H](N)C(=O)O)c2ccccc21)n1cc(C[C@H](N)C(=O)O)c2ccccc21,-13%
C=CCN1CC[C@]23CCCCC2[C@H]1Cc1ccc(O)cc13 (stereo partly specified),-7%
COc1ccc2c(c1O)-c1c(OC)c(OC)cc3c1[C@H](C2)N(C)CC3,13%
COc1ccc2c(c1OC)C(=O)O[C@H]2[C@@H]1c2cc3c(cc2CCN1C)OCO3,2%&-15%
CN(C(=O)Cc1ccc(Cl)c(Cl)c1)[C@H](CN1CCCC1)c1ccccc1,-6%&-27%
CC(=O)O[C@@H]1C[C@@]2(C)C(c3ccoc3)C[C@H]3O[C@]32[C@]2(C)C(=O)C(O)=C3C(C)(C)C(=O)C=C[C@]3(C)C12 (stereo partly specified),?
CCCN(CCC)C(=O)Cc1c(-c2ccc(Cl)cc2)nc2ccc(Cl)cn12,-9%
COC(=O)/C(C)=C\CC12OC(C)(C)C3CC(C=C4C(=O)c5c(OC)c6c(c(CC=C(C)C)c5OC431)OC(C)(CCC=C(C)C)C=C6)C2=O (stereo unspecified),-78%[inhibitor]
CC(C)=CCCC1(C)C=Cc2c(O)c3c(c(CC=C(C)C)c2O1)OC12C(=CC4CC1C(C)(C)OC2(C/C=C(/C)C(=O)O)C4=O)C3=O (stereo unspecified),-170%[inhibitor]
C=CCN1CCC2(C)c3cc(O)ccc3CC1[C@@H]2C (stereo partly specified),-4%
N[C@@H](CCl)C(=O)O,-8%
C[N+]1(C)C2CCC1CC(OC(=O)C(CO)c1ccccc1)C2 (stereo unspecified),2%&0%
C=C(C)[C@H]1C2C(=O)O[C@H]1[C@H]1OC(=O)[C@@]34O[C@@H]3C[C@]2(O)[C@@]14C,-7%&-1%
O=S(=O)(O)c1cc(O)ccc1O,-9%
CCCCNCC(O)c1ccc(O)cc1 (stereo unspecified),11%
Cn1cnc(CCN)c1,3%
c1ccc(N2CCCC3(CCNCC3)C2)nc1,-41%
Clc1ccc([C@@H]2C[C@H]3CC[C@@H]2N3)cn1,12%&-14%
NCCc1cc(O)c(O)cc1O,112µM*
CCOP(=S)(OCC)SCn1c(=O)oc2cc(Cl)ccc21,5%
[S]=[Sb](=[S])[S][Sb](=[S])=[S],-4%
CCCCC[C@@H](/C=C/C=C\CCCCCCCC(=O)O)OO,-7%
CCOC(=O)CC(SP(=S)(OC)OC)C(=O)OCC (stereo unspecified),13%&-16%
c1cncc(C2CCCCN2)c1 (stereo unspecified),-36%&-7%
CN[C@]1(c2ccccc2Cl)CCCCC1=O,6%

# A few values from above.
# EPAC1 agonist, COC(=O)/C(C)=C\CC12OC(C)(C)C3CC(C=C4C(=O)c5c(OC)c6c(c(CC=C(C)C)c5OC431)OC(C)(CCC=C(C)C)C=C6)C2=O (stereo unspecified) stands at -78%[inhibitor]
# EPAC1 agonist, CCOC(=O)CC(SP(=S)(OC)OC)C(=O)OCC (stereo unspecified) stands at 13%&-16%
# EPAC1 agonist, C[N+]1(C)C2CCC1CC(OC(=O)C(CO)c1ccccc1)C2 (stereo unspecified) stands at 2%&0%

# Some of the entries so far, as tab-separated lines:
compound	EPAC1 agonist
CC(=O)O[C@@H]1C[C@@]2(C)C(c3ccoc3)C[C@H]3O[C@]32[C@]2(C)C(=O)C(O)=C3C(C)(C)C(=O)C=C[C@]3(C)C12 (stereo partly specified)	?
NCCc1cc(O)c(O)cc1O	112µM*
O=S(=O)(O)c1cc(O)ccc1O	-9%
C=CCN1CCC2(C)c3cc(O)ccc3CC1[C@@H]2C (stereo partly specified)	-4%
C[N+]1(C)C2CCC1CC(OC(=O)C(CO)c1ccccc1)C2 (stereo unspecified)	2%&0%

# 2 entries from above, reformatted.
CCOC(=O)CC(SP(=S)(OC)OC)C(=O)OCC (stereo unspecified)
  EPAC1 agonist: 13%&-16%

Cn1cnc(CCN)c1
  EPAC1 agonist: 3%

# From PubChem
